nsP2pro primary = inhibitors of chikungunya virus nsP2 protease; FRET peptide cleavage, nsP2pro, fluorescence 1 h; Potency, µM (highest dose often 24.9 µM), for inactives: at the top dose activity change, negative = inhibition, usual class: inhibitors; 1.1% of 31,000 active; AID 1964107; active means well fitted inhibition curve with a large enough effect; inconclusive means small, poorly fitted or top-dose-only effect; inactive means no such curve, though single readings can be large or run the other way; also: nearly all actives have a fitted effect of over 60% in size; a reference inhibitor and vehicle were the controls
* marks the source's active call; other numbers are inactive results; i = inactive; ? = inconclusive; & = joins results of further samples; [ ] = remark or other dose. % is scaled to controls: 0 for no effect and ±100 for the full control effect; potency is read from the fitted curve at half-maximal effect.

SMILES	nsP2pro primary
COc1ccc(Cl)cc1NC(=O)Cn1c(=O)c2ccccc2n2nncc12	13%
Cc1oc(-c2ccccc2F)nc1Cn1c(SCc2cccc(C(F)(F)F)c2)nc2ccncc21	-3%
COc1ccc2ccccc2c1CN(C)CC(=O)Nc1ccc(N2CCOCC2)cc1	-8%
COC(=O)c1ccc(CN(Cc2ccc(OC)c(OC)c2)S(=O)(=O)c2ccc(F)c(C(=O)Nc3cc(C)ccc3C)c2)cc1	-14%
O=C(Cn1cc(SCc2c(F)cccc2Cl)c2ccccc21)N1CCCCCC1	-16%
Cc1ccc(N2CCN(c3cc(C)nc4c(-c5ccc(Cl)cc5)c(C)nn34)CC2C)cc1 (configuration not stated)	-18%
COCCNC(=O)c1nc(-c2ccsc2)c2ccccn12	?
Cc1ccc(NC(=O)C2CCCN(c3ncnc4c3nc3n4CCCCC3)C2)c(Br)c1 (configuration not stated)	-13%
O=C(Cn1cc(CNC(=O)C2CCCCC2)nn1)Nc1cc(C(F)(F)F)ccc1Cl	-4%
CCCc1cc(C(=O)N2CCc3c(nc(-c4cccnc4)[nH]c3=O)C2)n[nH]1	i
CCCCOc1ccc(C(=O)N(Cc2ccccc2)C2CCS(=O)(=O)C2)cc1 (configuration not stated)	-6%
C=CCn1cc(CN2CCC(Oc3ccc4ccccc4c3)(C(=O)O)CC2)cn1	i
CC[C@H]1CN(C(=O)C(C)(C)C)CC[C@H]1CC(=O)NCCSC	-3%[39.2 µM]
O=C(COc1cccc2c(=O)[nH]ccc12)c1ccccc1	-16%&-11%
Cc1ccc(CCNC(=O)C2CCN(Cc3nc(-c4ccccc4C)oc3C)CC2)cc1	-7%
O=c1c2ccccc2nc2sc(Nc3cccc4ccccc34)nn12	i
COc1ncc2cc(C(=O)Nc3cc(C(=O)NCc4cccc(Cl)c4)ccc3Cl)c(=O)[nH]c2n1	-5%
C=C1C[C@]23C[C@H]1CC[C@H]2C1=C[C@H]2OC(=O)[C@@](C)([C@H]1[C@@H]3C(=O)O)[C@H]2O	-4%
CCn1c(C)c(C2N3CC4(C)CN2CC(CC)(C3)C4=O)c2ccccc21 (configuration not stated)	-13%
Clc1cc(NCc2ccccn2)n2nccc2n1	3%[39.2 µM]
O=C(NC(NC(=S)Nc1ccc(F)c([N+](=O)[O-])c1)C(Cl)(Cl)Cl)C(c1ccccc1)c1ccccc1 (configuration not stated)	19%[10 µM]
COC(=O)c1cc2oc(C)cc2n1Cc1cc(C)ccc1C	-19%
COCCN1CCC2(CCC1=O)CN(c1ccc(C#N)cn1)CCN2C (configuration not stated)	-4%
CCOC(=O)c1c(Nc2ccccc2)nnc(-c2ccccc2)c1-c1ccccc1	-16%
O=C(Cc1ccccc1)Nc1ccc(S(=O)(=O)Nc2nccs2)cc1	-1%
CC(C)c1ccccc1-c1ncc(N)c(NCc2ccc(-c3cccnc3)cc2)n1	0%
COc1ccc(N2C[C@]34C=C[C@H](O3)C(C(=O)O)C4C2=O)cc1OC (some centres not stated)	i
COc1cccc(NC(=O)CCc2c(C)nc3nc(CNC(=O)c4cccc(F)c4)nn3c2C)c1	-10%
CN(CC(=O)N[C@H]1CCOC[C@H]1C1CCOCC1)Cc1ccncc1	1%
Cc1ccc(-c2cc(C(=O)Nc3cccc(S(N)(=O)=O)c3)c3ccccc3n2)cc1C	3%
C=CC[N@@+]12CC[C@]34c5ccccc5N5/C=C6\C7N(/C=C(\C53)[C@@H](C[C@@H]41)/C(=C/CO)C2)c1ccccc1[C@@]71CC[N@@+]2(CC=C)C/C(=C\CO)[C@@H]6C[C@@H]12 (some centres not stated)	16%
C[C@@H]1O[C@@H](O[C@H]2[C@H](O[C@H]3CC[C@@]4(C)C(CC[C@]5(C)C4C=C[C@]46OC[C@@]7(CCC(C)(C)C[C@H]74)[C@@H](O[C@@H]4O[C@@H](C)[C@H](O)[C@@H](O)[C@H]4O)C[C@]65C)[C@]3(C)CO)O[C@H](CO)[C@@H](O)[C@@H]2O[C@@H]2O[C@H](CO)[C@@H](O)[C@H](O)[C@H]2O)[C@H](O)[C@H](O)[C@H]1O (some centres not stated)	-2%[5.1 µM]
COc1ccc(C2CC(=O)N(Cc3ccccc3C)c3c2c(C)nn3-c2nc(C)cc(C)n2)c(OC)c1 (configuration not stated)	-7%
CCc1nc(-c2c3n(c(=O)n(CC(=O)NCc4cccc(OC)c4)c2=O)CCCC3)no1	i
COC(=O)c1cc(OC)c(OC)c(OC)c1NC(=O)c1cc(=O)n(C)c(=O)n1C	-5%
O=c1c2ccccc2nc2sc(Nc3cccc(C(F)(F)F)c3)nn12	-17%
Cc1cc(C(=O)N2CCC(F)(c3nc(-c4ccncc4)no3)CC2)n[nH]1	-2%
O=C(NC1CCCC1)c1cc2cn(C3CC3)cc2s1	-21%
CCOc1ccccc1CNC(=O)c1ccc2c(c1)nc1n2CCCCC1	-12%
O=C(Nc1cccc(C(F)(F)F)c1)N1CCC(CN2CCCCCC2)CC1	-41%
Cc1ocnc1C(=O)N1CCC2(CC1)CN(CC(C)c1ccccc1)C(=O)O2 (configuration not stated)	-1%
CCc1nn(Cc2c(C)cc(C)cc2C)c(=O)c2cc3cc(C)ccc3n12	-20%
COCCn1c(=O)c(C(=O)N2CCN(C(C)=O)CC2)nc2cccnc21	i
O=C1NC2(CCN(C(=O)c3cccnc3)C2)Oc2ccccc21 (configuration not stated)	2%[39.2 µM]
Cc1cc(C)nc(NC(=S)N2CCN(c3ccc4c(c3)OCO4)CC2)c1	4%
CCOC(=O)C1CCN(C(=O)C2COC3(CCCCC3)N2C(=O)c2cc(F)cc(F)c2)CC1 (configuration not stated)	4%
O=C(c1ccccc1O)N(Cc1cccs1)Cc1cccs1	-1%
CC1C/C=C/C=C\CCCCC(O)C/C=C/C(=O)O1 (configuration not stated)	-2%
CCNC(=O)[C@@H]1C[C@H](n2cc(CN(C)C(=O)c3cccc(C)c3C)nn2)CN1	i
CC(=O)N1CCN(c2ccc(NCc3ccco3)cc2)CC1	i
COc1ccc(-n2ncc(C(=O)N3CCN(c4ncccn4)CC3)c2C2CCN(C(=O)OC(C)(C)C)CC2)cc1	-4%
CSc1nc(=O)c2c(n1C)NC(=O)CC2c1cc(F)cc(F)c1 (configuration not stated)	0%
CCCCNc1ncc2c(-c3ccc(F)cc3)nn(CC3CCC(N)CC3)c2n1 (configuration not stated)	68%[activator][10 µM]
CN(C(=O)OC(C)(C)C)c1ccc(-c2nc3ccccc3s2)cc1	-3%
CC(C(=O)O)c1cccc(C(=O)c2ccccc2)c1 (configuration not stated)	-4%
N#Cc1nc(NCC(F)F)nc(Nc2cc(F)cc(F)c2)n1	3%
COc1ccc(OC)c(-c2nnc3n2N=C(c2ccc(OC)c(OC)c2)CS3)c1	2%
CC1=C[C@@H](CNS(=O)(=O)c2cccc(C#N)c2)[C@H](C(C)C)C[C@H]1CC(=O)N(C)Cc1cccnc1	?
COc1ccccc1CCNC(=O)C(=O)NCC(c1ccco1)S(=O)(=O)c1ccc(C)cc1 (configuration not stated)	-23%
CC1CCN([C@@H]2[C@H](O)[C@H](CO)O[C@@H]2CN(Cc2ccc(F)cc2)Cc2ccc(F)cc2)CC1	?

Continuation:
SMILES	nsP2pro primary
NC(=O)NCC(=O)N1CCC2(CCCN(CCCc3ccccc3)C2)C1 (configuration not stated)	-3%
Cc1ccc(O)c(NC(=O)c2cc(-c3ccccc3O)no2)c1	1%
O=C1c2[nH]nc(-c3ccccc3O)c2C(c2ccccc2F)N1Cc1cccnc1 (configuration not stated)	-16%
COC(=O)c1c(NC(=O)CCCOc2ccccc2C)sc2c1CCC2	13%
O=C1Cc2c([nH]c3ccc(Br)cc23)-c2ccccc2N1	49%[activator]
NC(=O)[C@H](Cc1cccs1)NC(=O)[C@@H]1C[C@@H](NC(=O)c2cnccn2)CCN1C(=O)COCC(=O)O	1%
COc1cc(-c2ccc(O)cc2)c(OC)c(O)c1C1=CC(=O)OC1CC(=O)O (configuration not stated)	3%
COc1cccc(CN[C@H]2[C@H](O)[C@H](O)C[C@@H]2c2ccc(N3CCOCC3)nc2)c1	-9%[39.2 µM]
Cc1ccc2c(c1)-c1cc(C)nn1C(c1cc(Br)ccc1O)N2 (configuration not stated)	-7%
Cc1ccc(-c2nc(NC(=O)CSc3ncnc4sc5c(c34)CCC(C)C5)ns2)cc1 (configuration not stated)	-25%
Cc1cc(C(=O)N2CCC3(CC2)CC(N(Cc2ccc(F)cc2)C2CC2)CCO3)n(C)n1 (configuration not stated)	-6%
CC(=O)Nc1cccc(S(=O)(=O)N2CCN(S(=O)(=O)c3c(F)cccc3F)CC2)c1	i
CC(C)(C)OC(=O)N[C@@H](Cc1ccc(O[S+](=O)([O-])c2cccc3cnccc23)cc1)C(=O)Nc1ccc(-c2ccccc2)cc1	-7%
COc1ccc(-n2nc3c(N4CCC(C(=O)NCc5ccccc5C)CC4)nnc(C)c3c2C)cc1	-10%
CC1(C)CCC[C@]2(C)[C@H]3CC(=O)O[C@]3(C)CC[C@@H]12	-13%
O=C(c1ccc2c(c1)N(Cc1ccccc1F)C(=O)c1ccccc1S2=O)N1CCC(Cc2ccccc2)CC1 (configuration not stated)	-10%
Cc1ccc(-c2ccc(=O)n(CC(=O)NC(C)c3ccccc3)n2)cc1 (configuration not stated)	-15%
CCCn1c(C)nc2c(NCCN3CCCCC3)nc(C)nc21	3%
O=C(CCc1nc2ccccc2s1)N[C@@H]1CCOC[C@H]1OCCO	i
COc1cccc(N2CCN(C(=O)C3CCC(CNS(=O)(=O)c4ccc(Br)s4)CC3)CC2)c1 (configuration not stated)	-6%
CCCCC1C(=O)NC(=O)N(C2CCCCC2)C1=O (configuration not stated)	8%
Cn1c2cc(Br)sc2c2cnn(Cc3c(F)cccc3Cl)c(=O)c21	3%
CCn1cnc2c(Nc3cccc(Cl)c3)nc(C#N)nc21	-6%
O=c1c2c(CO)c(-c3ccccc3)nn2ccn1CCOc1ccccc1	i
CCn1ncnc1C(C)NC1CCC2(CCNCC2)CC1 (configuration not stated)	-5%
C=CC(C)(O)CO[C@@H]1O[C@H](CO)[C@@H](O)[C@H](O)[C@H]1O (some centres not stated)	7%
CC1=C(C(=O)OCC2CCCCC2)C(c2ccccc2F)CC(=O)N1 (configuration not stated)	-8%
CCCCN(CCCC)C(=O)CN(C)S(=O)(=O)c1ccc2c(c1)c(=O)n(C)c(=O)n2C	-18%
CC(CCC(=O)O)C1CCC2C3CC(O)C4CC(O)CCC4(C)C3CCC12C (configuration not stated)	-16%
Cc1ccc(S(=O)(=O)c2cn(Cc3ccccc3)c3cc(N4CCCC4)c(F)cc3c2=O)cc1C	-24%
CN(C)c1cccc(-c2nccc(N3CCC(C(N)=O)CC3)n2)c1	i
CC(=O)c1ccc(O[C@@H]2O[C@H](CO)[C@@H](O)[C@H](O)[C@H]2O)cc1	-2%
Oc1ccc([C@H]2COc3cc(O)ccc3C2)cc1	-7%
NCC1CCN(c2nccc(-c3ccc4ccccc4c3)n2)CC1	99%[activator]
NC[C@H]1O[C@H](O[C@H]2[C@H](O[C@@H]3O[C@H](CO)[C@@H](O)[C@H]3O)C(O)[C@H](N)C[C@@H]2N)[C@H](N)[C@@H](O)[C@@H]1O (some centres not stated)	-2%[5.1 µM]
Cc1cc(NC(=O)Nc2nnc(-c3cccnc3)s2)ccc1Cl	2%
COc1ccc(CN(Cc2ccccc2)C(=O)c2ccc(OC)cc2O)cc1	-26%
Cc1ccc([S+](=O)([O-])N2CCCC2C(=O)N2CCC3(CC2)CC(=O)Nc2ccccc2O3)cc1 (configuration not stated)	-1%
CCCC(=O)N1CC(=O)Nc2ccc(Cl)cc2C1c1ccc(F)cc1 (configuration not stated)	-14%
O=C(O)c1cc(N(Cc2ccc(C3CCCCC3)cc2)C(=O)c2ccc(Oc3ccccc3)cc2)ccc1O	?
Fc1ccc(-c2nc(-c3c(F)cccc3F)[nH]c2-c2ccncc2)cc1	51%
NCC(=O)N1CCC2(CC1)CN(C(=O)c1ccc(Cl)cc1)CCO2	18%
COc1cccc(OC)c1C(=O)Nc1ccc2c(c1)N(C(C)=O)CCC2	?
Cc1cccc(-c2nc3cc(NC(=O)Cc4ccc(Cl)cc4)ccc3o2)c1	-17%
CCOc1ccc(CNC(=O)CCS(=O)(=O)c2cc3c4c(c2)CCN4C(=O)CC3)cc1OC	-14%

High-throughput results deposited in PubChem BioAssay by National Center for Advancing Translational Sciences (NCATS).

Not all compounds are listed; the hit share may differ from the screen's.
